# AF4-AF9 inh = inhibitors of human MLL-AF4/AF9 interaction; AID 651704; 350,000 compounds, 0.47% hits; P42568; inhibition, % at 10 µM; AlphaScreen, biotin-AF4 peptide binding to FLAG-AF9;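 active = every replicate reaching a set inhibition limit, whatever the replicate mean, cut at about 25% in these data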;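 also: 0% = plate neutral control median and 100% = total signal loss; the record names both 10 and 1 µM as test concentration; the first replicate is given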
# Target sequence (P42568 whole entry, looked up): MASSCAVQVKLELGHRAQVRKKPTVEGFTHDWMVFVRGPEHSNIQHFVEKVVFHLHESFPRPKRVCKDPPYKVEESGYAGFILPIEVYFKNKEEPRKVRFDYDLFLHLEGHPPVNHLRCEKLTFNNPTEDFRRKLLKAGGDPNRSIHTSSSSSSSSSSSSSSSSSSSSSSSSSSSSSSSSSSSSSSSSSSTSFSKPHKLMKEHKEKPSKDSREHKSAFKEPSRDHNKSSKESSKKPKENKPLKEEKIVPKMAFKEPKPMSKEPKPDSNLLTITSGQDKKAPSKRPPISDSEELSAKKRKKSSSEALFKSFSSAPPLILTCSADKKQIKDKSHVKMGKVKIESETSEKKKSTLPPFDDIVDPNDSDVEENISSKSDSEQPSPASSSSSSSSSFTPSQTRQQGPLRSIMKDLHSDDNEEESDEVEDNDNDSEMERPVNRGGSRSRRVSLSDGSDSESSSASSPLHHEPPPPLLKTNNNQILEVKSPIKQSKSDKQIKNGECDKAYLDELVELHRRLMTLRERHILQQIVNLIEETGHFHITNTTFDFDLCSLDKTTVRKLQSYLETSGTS
# Ecoli rRNA inh = inhibits bacterial ribosomal RNA function over humanized ribosomes | E. coli WT GFP vs humanized-ribosome RFP mutants, fluorescence, 24 h; stronger effect = lower value; DMSO median 0, no signal -100 | AID 720706 | GFP signal change (wild-type ribosome), % (concentration not given with the values) | 350,000 compounds, 1.6% hits;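 active = significant combined selectivity score with lowered wild-type GFP, culture density cut under 30%, mutant RFP and density less affected; inactive = any of these conditions unmet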; also: one replicate is shown; some compounds called inactive have numbers as strong as hits
# Ecoli rRNA inh OD600 = recorded beside Ecoli rRNA inh, whose call it bears; OD600 change, %; measured here: OD600 growth;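 optical density of the mix in the first replicate; 0 = DMSO median and -100 = no signal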
# Ecoli rRNA inh RFP = further read-out of Ecoli rRNA inh, marked with its call; RFP signal change, %; measured here: RFP humanized mutant strains;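 first replicate; 0 = DMSO median and -100 = no signal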
# Starred values were filed as active, the others as inactive; & = joins results of further samples. The list is partial; rates above refer to the full screens.
# Every second line gives: AF4-AF9 inh, Ecoli rRNA inh, Ecoli rRNA inh OD600, Ecoli rRNA inh RFP
- C[C@H]1CN([C@@H](C)CO)C(=O)c2cc(NC(=O)CCCCCC(=O)Nc3ccccc3N)ccc2O[C@@H]1CN(C)S(=O)(=O)c1ccccc1
  -0.7, 0.5, 3.9, 0.5
- CC(C)C[C@@H]1COc2cccc(NCCO)c2S(=O)(=O)N1
  -1.7, -3.4, 12.0, 0.6
- COc1ccc(CN(C)C[C@H]2Oc3c(NS(=O)(=O)c4cn(C)cn4)cccc3C(=O)N([C@@H](C)CO)C[C@@H]2C)cc1
  2.3, 3.9, 5.6, -1.3
- CCCn1c(SCC(=O)Nc2cc(C(=O)O)ccc2C)nc2sc3c(c2c1=O)CCC3
  0.7, 1.7, -2.0, -3.8
- CSCCC(NC(=O)c1ccccc1Br)C(=O)N1CCN(C/C=C/c2ccccc2)CC1 (configuration not stated)
  3.1, -16.9, -22.4, 9.2
- O=C(C[C@@H]1CC[C@@H](NC(=O)C2CCOCC2)[C@H](CO)O1)NCc1ccncc1
  -6.6, 4.5, 9.0, -3.4
- C[C@@H]1CN([C@@H](C)CO)C(=O)c2cc(C#CC(C)(C)O)cnc2O[C@H]1CN(C)Cc1ccccn1
  -4.5, 1.8, 12.9, -2.6
- CN(C)c1cccc(NC(=O)C2(C)Cc3c(-c4cccnc4)ccnc3O2)c1 (configuration not stated)
  8.4, 2.2, 10.9, 0.3
- C[C@@H]1CN([C@@H](C)CO)S(=O)(=O)c2ccc(/C=C/c3ccccc3)cc2O[C@@H]1CN(C)C
  2.4, 2.9, -7.4, 3.4
- COC(=O)C[C@@H]1CC[C@H]2[C@@H](COc3ccc(NC(=O)Nc4cc(C)cc(C)c4)cc3C(=O)N2C)O1
  4.4, -6.1, -12.9, -1.4
- C[C@@H]1CN([C@H](C)CO)S(=O)(=O)c2ccc(C#Cc3cccc(F)c3)cc2O[C@H]1CN(C)C(=O)NC1CCCCC1
  -3.0, 5.9, 13.4, 0.2
- CO[C@H]1CN(C)C(=O)c2ccc(NC(=O)c3ccccc3F)cc2OC[C@@H](C)N(C(C)=O)C[C@H]1C
  -0.7, -0.8, 1.7, -3.1
- CC(C)NC(=O)N(C)C[C@@H]1Oc2ccc(NS(C)(=O)=O)cc2CC(=O)N([C@@H](C)CO)C[C@H]1C
  -1.9, 5.3, 5.9, -3.4
- CC(C)NC(=O)N(C)C[C@@H]1OCCCC[C@@H](C)Oc2ccc(NC(=O)C3CCCCC3)cc2C(=O)N([C@H](C)CO)C[C@@H]1C
  -16.8, 0.1, 6.9, -2.2
- C[C@@H]1CCCCO[C@@H](CN(C)S(=O)(=O)c2ccc(F)cc2)[C@H](C)CN([C@@H](C)CO)C(=O)c2cc(NC(=O)c3ccncc3)ccc2O1
  0.9, -6.0, -6.0, -0.1
- C[C@@H]1CN([C@@H](C)CO)C(=O)c2cc(NS(=O)(=O)c3cn(C)cn3)ccc2O[C@@H]1CN(C)S(C)(=O)=O
  -1.6, 1.8, 4.0, -1.5
- C[C@H]1CCCCO[C@@H](CN(C)Cc2ccc(C(=O)O)cc2)[C@@H](C)CN([C@@H](C)CO)C(=O)c2cc(NC(=O)Nc3ccc4c(c3)OCO4)ccc2O1
  4.7, -1.7, -6.0, 0.8
- O=C(C[C@H]1C[C@H]2c3cc(NC(=O)C4CCC4)ccc3O[C@H]2[C@H](CO)O1)NCc1ccc2c(c1)OCO2
  -0.6, 2.0, 2.6, -1.0
- CN1C(=O)c2cc(NC(=O)c3cccc(C(F)(F)F)c3)ccc2OC[C@H]2O[C@H](CC(=O)O)CC[C@H]21
  -1.5, -1.2, 8.6, -2.7
- O=C(C[C@@H]1C=C[C@H](NC(=O)C2CCC2)[C@H](CO)O1)NCCCN1CCOCC1
  -1.3, 0.1, 2.5, 1.7

# Three compounds from above, ordered by their value in Ecoli rRNA inh, lowest first.
SMILES,Ecoli rRNA inh
CN1C(=O)c2cc(NC(=O)c3cccc(C(F)(F)F)c3)ccc2OC[C@H]2O[C@H](CC(=O)O)CC[C@H]21,-1.2
O=C(C[C@H]1C[C@H]2c3cc(NC(=O)C4CCC4)ccc3O[C@H]2[C@H](CO)O1)NCc1ccc2c(c1)OCO2,2.0
CC(C)NC(=O)N(C)C[C@@H]1Oc2ccc(NS(C)(=O)=O)cc2CC(=O)N([C@@H](C)CO)C[C@H]1C,5.3

# Continuation:
# Every second line gives: AF4-AF9 inh, Ecoli rRNA inh, Ecoli rRNA inh OD600, Ecoli rRNA inh RFP
- Nc1ccn([C@@H]2O[C@H](C(=O)N3CCN(Cc4ccccn4)CC3)[C@@H](O)[C@H]2O)c(=O)n1
  -1.2, 28.4, 16.1, 1.0
- C[C@H]1CN([C@@H](C)CO)C(=O)Cc2cc(NC(=O)Cn3cnnn3)ccc2O[C@H]1CN(C)Cc1ccc(C(=O)Nc2ccccc2N)cc1
  1.3, 0.5, 0.5, -1.9
- O=C(C[C@H]1C=C[C@@H](NS(=O)(=O)c2ccccc2)[C@H](CO)O1)N1CCN(c2ccccc2)CC1
  -2.3, -1.7, 4.9, -4.1
- CC(C)NC(=O)N(C)C[C@@H]1Oc2ccc(NS(=O)(=O)c3ccccc3)cc2C(=O)N([C@H](C)CO)C[C@@H]1C
  -0.7, 2.5, 2.6, -0.7
- C[C@@H]1CCCCO[C@@H](CN(C)C(=O)CCC(F)(F)F)[C@@H](C)CN([C@@H](C)CO)C(=O)c2cc(NC(=O)c3ccccc3)ccc2O1
  -4.5, 0.5, 5.0, -2.5
- C[C@H](O)C#Cc1ccc2c(c1)O[C@H](CN(C)Cc1cncnc1)[C@@H](C)CN([C@@H](C)CO)S2(=O)=O
  1.2, -0.5, 4.4, -1.6
- COc1ccc(NC(=O)N(C)C[C@@H]2Oc3c(NC(=O)c4nc5ccccc5s4)cccc3C(=O)N([C@@H](C)CO)C[C@@H]2C)cc1
  2.6, -2.6, -6.9, 3.8
- C[C@@H]1CN([C@@H](C)CO)C(=O)c2cc(-c3ccc(C#N)cc3)cnc2O[C@H]1CN(C)Cc1cccnc1
  -3.9, 1.4, 11.1, 2.8
- O=C(NCc1ccncn1)[C@@H]1[C@@H](CO)[C@@H]2Cn3c(ccc(-c4ccccc4)c3=O)[C@@H]2N1CC1CC1
  -1.5, 0.0, -1.8, 4.3
- CC=Cc1ccc2n(c1=O)C[C@H]1[C@H](CO)[C@@H](C(=O)NC3CCC3)N(C(=O)C3CCC3)[C@@H]21 (mixture of isomers)
  -1.5, -3.0, 13.1, -1.2
- COc1cccc(S(=O)(=O)N(C)C[C@@H]2OCc3ccccc3-c3ccccc3C(=O)N([C@@H](C)CO)C[C@H]2C)c1
  11.7, -0.1, -9.6, 0.1
- C/C=C/c1ccc2c(c1)O[C@H](CN(C)S(C)(=O)=O)[C@@H](C)CN([C@@H](C)CO)S2(=O)=O
  -1.1, 0.0, -1.8, -1.6
- Cc1noc(C)c1NC(=O)Nc1ccc2c(c1)C(=O)N([C@@H](C)CO)C[C@H](C)[C@H](CN(C)Cc1ccccc1)OCCCC[C@H](C)O2
  2.5, 2.6, 6.3, 0.4
- Cc1cccc(S(=O)(=O)N(C)C[C@@H]2OCc3ccccc3-c3c(n(C)c4ccccc34)C(=O)N([C@@H](C)CO)C[C@@H]2C)c1
  5.5, -0.7, 10.0, -2.5
- O=C(c1ccc2c(c1)OCO2)N1CC2(C1)[C@@H](c1ccccc1)[C@@H](CO)N2C(=O)C1CCCC1
  3.7, -1.1, -0.7, 1.0
- COCC(=O)N1C[C@H](C)[C@@H](OC)CN(C)C(=O)c2ccc(NC(=O)Nc3ccccc3)cc2OC[C@H]1C
  3.2, 0.6, 3.0, 1.0
- Cc1ccc(S(=O)(=O)Nc2ccc3c(c2)C(=O)N([C@H](C)CO)C[C@@H](C)[C@@H](CN(C)S(=O)(=O)c2ccc(F)cc2)OCCCC[C@@H](C)O3)cc1
  -1.2, -2.7, 3.0, -0.9
- C[C@H]1CN([C@@H](C)CO)C(=O)c2cc(C3=CCCCC3)cnc2O[C@@H]1CN(C)C(=O)NC1CCCC1
  -1.6, -6.1, 7.8, 1.8
- C[C@@H]1CN([C@@H](C)CO)C(=O)Cc2cc(NC(=O)CCC(F)(F)F)ccc2O[C@H]1CN(C)Cc1ccc2c(c1)OCO2
  5.9, -3.2, -5.0, 0.6
- CO[C@@H](CN(C)C(=O)c1ccc2c(c1)OCO2)[C@H](C)CN([C@@H](C)CO)S(=O)(=O)c1ccccc1
  0.0, 1.6, -12.7, 0.7
- Cc1cc(C(=O)Nc2ccc3c(c2)C(=O)N(C)[C@H]2CC[C@@H](CC(=O)NC4CCCC4)O[C@H]2CO3)no1
  -1.2, -1.2, 1.1, 0.1
- C[C@@H]1CN([C@@H](C)CO)S(=O)(=O)c2ccc(-c3ccccc3)cc2O[C@H]1CN(C)Cc1cncnc1
  1.2, -4.0, -8.9, 1.6
- C[C@H]1CCCCO[C@H](CN(C)C(=O)Nc2ccc(C(F)(F)F)cc2)[C@@H](C)CN([C@@H](C)CO)C(=O)c2cc(N(C)C)ccc2O1
  21.1, -1.6, -4.2, 2.7
- CCCNC(=O)Nc1ccc2c(c1)OC[C@H](C)N(Cc1ccccn1)C[C@H](C)[C@@H](OC)CN(C)C2=O
  -0.8, -0.5, 4.0, -3.8
- CN1C[C@@H]2[C@H](c3ccccc31)[C@@H](CO)N2C(=O)C1CC1
  -0.4, 2.1, -5.0, -3.8
- CNc1ncnc2c1ncn2[C@H]1CN(Cc2cccs2)C[C@@H](CO)O1
  1.6, 2.4, 4.7, -0.4
- C[C@@H](O)C#Cc1ccc2c(c1)O[C@H](CN(C)C(=O)Cc1ccccn1)[C@@H](C)CN([C@@H](C)CO)S2(=O)=O
  -3.4, 2.6, 1.4, -1.5
- O=C(Nc1ccccc1)c1cc(C2COCCN2C(=O)c2cccs2)on1 (configuration not stated)
  -1.3, 7.7, 10.3, 0.3
- CN(Cc1ccc(Cl)c(Cl)c1)C(=O)C1CC(=O)N(c2ccc3c(c2)OCCO3)C1 (configuration not stated)
  -2.4, -1.8, -2.4, -0.5
- Cc1ccc(S(=O)(=O)N(C)C[C@H]2OCCCC[C@@H](C)Oc3ccc(NC(=O)CCCN(C)C)cc3C(=O)N([C@@H](C)CO)C[C@H]2C)cc1
  5.5, 3.5, -3.7, 1.3
- C[C@@H]1CN([C@@H](C)CO)C(=O)c2cc(N(C)C)ccc2O[C@@H]1CN(C)C(=O)Nc1ccccc1
  1.1, 4.0, 1.0, -0.7
- CO[C@H]1CN(C)C(=O)c2cc(NC(=O)Nc3c(C)noc3C)ccc2OC[C@@H](C)N(CC2CC2)C[C@@H]1C
  -1.1, 4.7, 2.2, -0.6
- Cn1cnc(S(=O)(=O)N2CCCCN3[C@H](C2)[C@H](c2ccc(-c4ccccc4)cc2)[C@@H]3CO)c1
  -2.0, -4.3, 3.3, 1.4
- COc1ccc(S(=O)(=O)Nc2ccc3c(c2)[C@H]2C[C@@H](CC(=O)N(C)C)O[C@@H](CO)[C@H]2O3)cc1
  -0.1, -0.7, -3.1, -2.3
- CN1CCCCN2[C@@H](CO)[C@H](c3ccc(C#Cc4ccccc4F)cc3)[C@@H]2C1
  10.0, -1.4, -2.7, -0.2
- O=C(N[C@@H]1CC[C@@H](CCn2cc(C3(O)CCCC3)nn2)O[C@@H]1CO)C1CCC1
  -1.8, 2.4, 6.4, -1.7
- O=C(Nc1cccc2cccnc12)c1csc([C@@H]2O[C@H](CO)[C@H](O)[C@H](O)[C@H]2O)n1
  0.1, 7.0, 17.3, 1.9
- O=C(C[C@H]1CC[C@@H](NC(=O)Nc2cc(F)ccc2F)[C@H](CO)O1)Nc1ccc(-c2ccccc2)cc1
  -14.1, -7.2, -12.8, 4.3
- O=C(Nc1ccc(Cl)cc1)N1[C@@H]2CNC[C@H]1C2c1ccc(-c2ccccc2)cc1 (some centres not stated)
  -3.1&-0.9, -57.6&-55.0, -77.6&-75.1, -14.2&-11.9
- CN(C)C(=O)C[C@H]1CC[C@H]2[C@@H](COC[C@H](O)CN2C(=O)C2CC2)O1
  0.0, 3.7, 3.1, 2.2
- CO[C@H]1CN(C)C(=O)c2ccc(NS(=O)(=O)CC(F)(F)F)cc2OC[C@H](C)N(C)C[C@H]1C
  -3.6, -4.6, -1.3, 0.5
- O=C(N[C@H]1C=C[C@@H](CC(=O)N2CCCCC2)O[C@H]1CO)c1ccc2c(c1)OCO2
  -7.4, 0.9, 2.8, 0.4
- C[C@@H]1CN([C@@H](C)CO)C(=O)c2cc(NC(=O)Nc3ccccc3)ccc2O[C@H]1CN(C)S(=O)(=O)c1cccs1
  -2.7, -9.8, -25.4, 1.5
- O=C(Nc1cc(F)ccc1F)N[C@H]1CC[C@@H](CCn2cc(C3CCCCC3)nn2)O[C@@H]1CO
  -10.7, -12.4, -22.5, 2.2
- COc1ccc(CNC(=O)C[C@@H]2C=C[C@@H](NS(=O)(=O)c3cccc(OC)c3)[C@@H](CO)O2)cc1
  -0.2, 4.4, -4.4, 3.9
- CC(C)C#Cc1ccc([C@H]2[C@@H](CO)N3CCCCN(S(=O)(=O)Cc4ccccc4)C[C@@H]23)cc1
  -1.5, 0.4, 9.8, 0.1

# Screening results deposited in PubChem BioAssay by Broad Institute.
